# TRPML1 blocker – blocks the human TRPML1 channel. 390,000 compounds, 0.02% hits. Q9GZU1. AID 624415. activity change, negative = inhibition, % (no concentration beside the values). TRPML1-inducible cells, Ca2+ dye fluorescence, FDSS; hits give low values; inhibition of EC80 agonist-evoked calcium signal; in the data active means activity change below about -50%; inconclusive means about -30% to -50%; inactive means above about -30%;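 further: stimulus is agonist 54-4 at its EC80 concentration; on the % scale 0 is the no-effect control and ±100 the full control effect; compound concentration not given in the record; the text of the record puts the active cut at -80%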
#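 TRPML1-DL cells, Tet-induced overnight (~16 h, 37 °C) at 1,500 cells/well, were loaded with Ca8 no-wash dye plus quencher for 45-90 min at room temperature. Compounds were pinned during FDSS kinetic reading; agonist 54-4 at EC80 (4 uM final) then added.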
# CtBP-E1A inh – blocks the CtBP interaction with E1A. AlphaScreen GST-E1A/His-CtBP binding, 1536-well; hits give low values; control for the full effect not named in the record. activity change, % (concentration not given with the values). 340,000 compounds, 0.49% hits. AID 651724; in the data active means activity change below about -65%; inconclusive means about -30% to -65%; inactive means above about -30%; further: on the % scale 0 is the no-effect control and ±100 the full control effect
#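 AlphaScreen with 125 nM GST-E1A and 125 nM His-CtBP (5X stocks) in Tris pH 8.0, 300 mM NaCl, BSA, Tween 20, TCEP. Compounds preincubated 2 h at 37 deg C, then glutathione donor/nickel acceptor beads added for 1 h at 37 deg C in dark.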
# Six1-Eya2 blk – blocks human Six1 binding to Eya2; 360,000 compounds, 0.56% hits; activity change, % (test concentration not listed); Q15475+O00167; AlphaScreen GST-Six1/His-Eya2 binding, biochemical; hits give low values; control for the full effect not named in the record; in the data active = activity change below about -65%; inconclusive = about -30% to -65%; inactive = above about -30%; further: on the % scale 0 is the no-effect control and ±100 the full control effect
# Target sequence (O00167 whole entry, looked up): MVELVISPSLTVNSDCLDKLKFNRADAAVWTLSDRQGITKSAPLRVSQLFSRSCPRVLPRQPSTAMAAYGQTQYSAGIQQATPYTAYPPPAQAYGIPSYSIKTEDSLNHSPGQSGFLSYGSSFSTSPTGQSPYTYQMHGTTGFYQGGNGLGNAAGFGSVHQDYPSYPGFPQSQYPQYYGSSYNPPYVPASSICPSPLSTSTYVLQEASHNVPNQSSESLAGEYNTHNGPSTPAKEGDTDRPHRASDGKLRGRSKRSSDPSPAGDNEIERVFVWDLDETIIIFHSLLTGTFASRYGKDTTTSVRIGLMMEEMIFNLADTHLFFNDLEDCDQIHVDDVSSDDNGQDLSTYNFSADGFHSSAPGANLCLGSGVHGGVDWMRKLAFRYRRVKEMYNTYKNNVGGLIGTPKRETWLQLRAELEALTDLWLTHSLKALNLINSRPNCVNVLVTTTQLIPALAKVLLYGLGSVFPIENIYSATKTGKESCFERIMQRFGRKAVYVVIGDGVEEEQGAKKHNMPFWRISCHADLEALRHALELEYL
# Target sequence (Q15475 whole entry, looked up): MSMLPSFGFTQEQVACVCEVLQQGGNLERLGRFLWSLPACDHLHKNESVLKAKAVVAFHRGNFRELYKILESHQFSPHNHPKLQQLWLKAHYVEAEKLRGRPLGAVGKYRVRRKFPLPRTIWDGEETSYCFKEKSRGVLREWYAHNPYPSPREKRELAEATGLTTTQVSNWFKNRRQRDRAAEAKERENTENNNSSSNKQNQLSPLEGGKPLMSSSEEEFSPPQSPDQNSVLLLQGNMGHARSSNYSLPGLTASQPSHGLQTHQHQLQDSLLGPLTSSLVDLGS
#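 AlphaScreen with GST-Six1 and His-Eya2 (5X mix: 250 nM and 500 nM), glutathione donor and nickel acceptor beads; buffer 50 mM Tris pH 8.0, 300 mM NaCl, 1 mM TCEP; 1 h at 37 C in the dark.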
# TRPML1 ag – agonists of human TRPML1 channel; 410,000 compounds, 0.12% hits; activation, % (concentration not given with the values); Q9GZU1; TRPML1-expressing cells, Ca2+ dye fluorescence, FDSS; host cell line not named in the record; reference of the full effect not given here; AID 624414; in the data active = activation above about 50%; inconclusive = about 30% to 50%; inactive = below about 30%; further: 0% is about no effect; the text of the record puts the active cut at 80%
#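 In this qHTS format, compounds were pin-transferred onto Ca8-dye-loaded TRPML1-DL cells induced with Tet overnight, and intracellular Ca2+ fluorescence was recorded kinetically for 110 s after a 10 s baseline. A subsequent 4uM final 54-4 (EC80) addition followed by a second 110 s read served as the antagonist phase.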
# D2 ag – activates the human D2 dopamine receptor | 360,000 compounds, 0.084% hits | activation, % (test concentration not listed) | P14416 | AID 624465 | DiscoveRx PathHunter D2 beta-arrestin, luminescence, 90 min; 100% = 57 uM dopamine signal; in the data active = activation above about 40%; inconclusive = about 15% to 40%; inactive = below about 15%; further: compound concentration not given in the record; the text of the record calls up to 30% inactive
#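 DiscoveRx PathHunter D2 beta-arrestin cells (2,100/well) attached overnight, then compound-stimulated 90 min at 37 C in HBSS/10 mM HEPES/0.1% Tween-20 buffer; beta-galactosidase complementation read by luminescence after 1 h at ambient temperature. Dopamine 57 uM final (EC100) as control.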
# PINK1 expr mod – modulators of PINK1 expression; Potency, µM (highest dose often 76.6 µM), for inactives: at the highest dose activation (PINK1 increase), most hits filed as activators; PINK1 immunofluorescence, high-content cytometry, 24 h; 410,000 compounds, 0.2% hits; active = well fitted activation curve with a large enough effect; inconclusive = small, poorly fitted or top-dose-only effect; inactive = flat fitted curve, though single readings scatter; cell line not stated here;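 further: potency means the concentration at half of the fitted maximal effect; % of control where 0% means no effect; nearly all actives have a fitted effect of over 65% in size; a mitochondrial uncoupler was the plate control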
#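 Decision-based qHTS: stable cells, 24 h exposure to five compound concentrations, CCCP as control. Fixed cells stained for PINK1 plus nuclear, mitochondrial and cell markers, cytometer read.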
# Starred values were filed as active, the others as inactive; ? = inconclusive; / = not tested or not shown; [ ] = another dose, or the depositor's remark.
canonical_smiles	TRPML1 blocker	CtBP-E1A inh	Six1-Eya2 blk	TRPML1 ag	D2 ag	PINK1 expr mod
Cc1c(Cl)cccc1NC(=O)CSc1ncnc2c1sc1ccccc12	-19	/	/	2.2	/	2.0%
CN1CCN(c2ccc([N+](=O)[O-])cc2C(=O)c2ccccc2)CC1	4	-2	-2	-0.5	-1.0	4.5%
Cc1cc(NC(=O)CSC2=NCCS2)no1	18	4	9	0.4	0.2	1.8%
CCCC(=O)Nc1ccc(C(=O)NNC(=O)c2ccco2)cc1	25	-3	2	0.7	0.6	-1.7%[38.3 µM]
Nc1nonc1C(=O)OCC(=O)c1ccc(Cl)cc1	11	-7	0	-0.9	-7.4	0.9%
COc1ccccc1CNC(=O)Cc1cc(=O)[nH]c(=O)[nH]1	6	0	7	-0.8	-2.5	0.6%
CCCCOC(=O)n1ccc(C(=O)Nc2ccccc2OC)n1	-2	?	-26	-0.4	-3.6	-3.6%[38.3 µM]
COc1cccc(C2(C)NC(=O)N(CC(=O)c3cc(C)n(C4CC4)c3C)C2=O)c1 (configuration not stated)	-7	3	-10	0.5	-3.6	0.4%
CC(NC(=O)CCCc1nnc2n(C)c(=O)c3sccc3n12)c1ccccc1 (configuration not stated)	5	/	0	-0.1	0.3	2.7%
COc1ccccc1C(=O)N1CCN(Cc2cccnc2)CC1	25	9	0	0.7	-3.4	1.8%

# An excerpt of these results, with each value named.
SMILES: Nc1nonc1C(=O)OCC(=O)c1ccc(Cl)cc1
  TRPML1 blocker: 11	CtBP-E1A inh: -7	Six1-Eya2 blk: 0	TRPML1 ag: -0.9	D2 ag: -7.4	PINK1 expr mod: 0.9%
SMILES: CCCC(=O)Nc1ccc(C(=O)NNC(=O)c2ccco2)cc1
  TRPML1 blocker: 25	CtBP-E1A inh: -3	Six1-Eya2 blk: 2	TRPML1 ag: 0.7	D2 ag: 0.6	PINK1 expr mod: -1.7%[38.3 µM]
SMILES: Cc1c(Cl)cccc1NC(=O)CSc1ncnc2c1sc1ccccc12
  TRPML1 blocker: -19	CtBP-E1A inh: /	Six1-Eya2 blk: /	TRPML1 ag: 2.2	D2 ag: /	PINK1 expr mod: 2.0%

# Carrying on:
canonical_smiles	TRPML1 blocker	CtBP-E1A inh	Six1-Eya2 blk	TRPML1 ag	D2 ag	PINK1 expr mod
CCN(CC)S(=O)(=O)c1cc(NC(=O)Cc2ccsc2)ccc1C	9	1	-11	0.5	0.1	0.0%
Cc1cn([C@H]2C[C@H](O)[C@@H](CNCc3cnc(N4CCOCC4)s3)O2)c(=O)[nH]c1=O	3	-12	2	-0.1	-8.5	-0.5%
O=S(=O)(c1cccc(-c2nc3ccccc3s2)c1)N1CCCC1	72	5	5	4.0	-1.0	5.1%[38.3 µM]
c1cncc(-c2csc(NCc3ccco3)n2)c1	-2	-12	-2	0.2	-2.6	-3.3%
COc1cccc(/C=C/C(=O)Nc2ccc3nc(N4CCN(C)CC4)cc(C)c3c2)c1OC	-13	/	/	2.4	/	1.2%
COc1cc(NS(=O)(=O)c2ccc(N/C=C(\C=O)c3nc4cc(Cl)ccc4o3)cc2)nc(OC)n1	-1	-17	-20	1.2	-1.5	-1.6%
Cc1nc(C(F)(F)F)ccc1C(=O)N1CCC1(C)C(=O)NS(=O)(=O)c1c(C)noc1C (configuration not stated)	/	10	0	-0.1	-3.5	0.7%
COc1ccccc1-c1noc2ncnc(Nc3ccc4c(c3)OCO4)c12	-8	5	5	0.1	-3.9	-1.0%
Cc1ccc(NS(=O)(=O)c2cccs2)c(C)c1	75	9	-4	1.4	-1.7	2.5%
S=C(NCC1CCCO1)c1ccc(Br)cc1 (configuration not stated)	4	-2	-4	-0.1	-3.7	0.3%
CCOc1ccc(C(=O)Nc2ccc3oc(-c4ccc(Br)cc4)nc3c2)cc1	-1	/	/	1.1	/	0.8%
O=C(c1cccc2ccccc12)C1CCCN(C(=O)c2ccc(N3CCOCC3)cc2)C1 (configuration not stated)	-18	0	0	-0.7	-1.3	0.4%
COc1ccc(CNC(=O)N2CCN(S(=O)(=O)c3ccc(C)cc3C)CC2)cc1	-2	-16	5	2.9	2.2	-1.8%
CCOP(=O)(O)c1ccccc1OCCOCCOc1ccccc1P(=O)(O)OCC	1	13	0	0.0	-0.5	-1.6%[38.3 µM]
O=C(NCc1ccccc1)C1CC(=O)N(C2CCCCC2)C1 (configuration not stated)	-15	-11	-9	0.0	-1.7	4.4%
CC(=O)Nc1ccc(S(=O)(=O)N(C)c2ccc(O)cc2)cc1	-2	1	3	0.1	-1.4	-1.0%
COc1ccc(S(=O)(=O)NC(C)c2ccc3c(c2)OCCO3)cc1 (configuration not stated)	1	3	3	-0.5	1.9	1.2%
CC1(C(=O)NS(=O)(=O)c2cccs2)CCN1C(=O)Cc1ccccc1 (configuration not stated)	/	1	0	-0.4	-3.9	-0.8%
COc1ccccc1N1CCN(C(=O)CCc2nnc3ccc(N4CCCC4)nn23)CC1	-3	0	0	0.6	0.7	5.7%
O=C(CSc1nnc(-c2ccc([N+](=O)[O-])cc2)o1)Nc1ccccn1	-6	/	15	0.5	-0.1	5.0%
CCN(CC(=O)NCc1cccs1)C(=O)c1ccc(S(=O)(=O)N(CC)c2ccccc2)cc1	15	1	1	3.8	1.0	0.1%
Cc1cccc(C(=O)NNC(=O)c2ccc(Br)cc2)c1	2	-9	-1	-1.1	-6.3	3.0%
CCOc1cc(C(=O)NCc2ccco2)cc(OCC)c1OCC	7	5	2	2.3	2.0	-3.7%
CC(C)CNC1CS(=O)(=O)CC1O (configuration not stated)	/	11	4	/	-6.1	-0.7%
COc1ccc(C(CNC(=O)COc2ccccc2C#N)N2CCOCC2)cc1 (configuration not stated)	-1	-1	-2	0.6	0.1	-0.1%
COc1ccc(C(=O)NCCc2ccccc2)cc1[N+](=O)[O-]	20	2	-15	-1.3	-1.8	-0.5%
CCOc1ccc(C(=O)c2cn(CC(=O)Nc3ccc4c(c3)OCCO4)c3ccc(F)cc3c2=O)cc1	-7	/	/	-0.4	/	0.4%
C=CCNC(=O)C12CCC(C)(C(=O)C1Br)C2(C)C (configuration not stated)	48	10	2	-0.6	-0.5	0.5%
CCCCNC(=O)CSc1nc2ccc(C)cc2[nH]1	22	0	-1	-0.5	-3.9	0.5%
COC(=O)c1ccc(Cn2cc(C(F)(F)F)cc([N+](=O)[O-])c2=O)cc1	-5	7	-6	-0.2	7.1	2.3%
CCOc1ccc(C(=O)NCC(=O)N2CCCC2)cc1	-4	-11	-1	0.4	-4.3	0.2%
COc1ccc(C)cc1NC(=O)C1CCCCN1S(=O)(=O)c1ccccc1 (configuration not stated)	57	8	-1	2.3	-3.0	-1.2%
CC(C)c1ccc(C(=O)NCc2ccc(Cl)cc2)cc1	-5	7	12	0.5	-0.7	-0.7%
Cc1nc(SCCOc2ccccc2)[nH]c(=O)c1Cc1ccccc1	-3	0	-3	0.6	-3.3	5.4%
CN1CCN(C(=O)C2=C[C@@H](C3CC3)C[C@@H](OCc3ccc(CO)cc3)O2)CC1	-8	2	5	-0.6	-1.9	0.6%
CC(=O)NC12CC3CC(C1)CC(C(=O)OCC(=O)Nc1ncc(Cl)cc1Cl)(C3)C2	0	-3	1	1.9	0.1	0.4%
O=C1CC(SCCc2nc3ccccc3[nH]2)C(=O)N1c1ccc(F)c(Cl)c1 (configuration not stated)	-4	-16	-3	-0.2	-0.2	2.0%
Cc1nc2cc(F)ccc2n1C1CCN(C(=O)c2ccc(F)cc2F)CC1	2	0	2	0.3	3.4	-0.6%
Cc1ccc(CC2C(=O)N(c3cc(Cl)ccn3)C(=O)C2C)cc1 (configuration not stated)	-7	0	6	0.9	-5.0	1.4%
CCCc1cc(=O)oc2cc(OCc3ccc(C(=O)O)cc3)ccc12	14	1	0	-0.4	-0.6	-1.3%
COc1ccc(N=C2NC(=O)/C(=C\c3ccco3)S2)cc1	8	-21	-9	2.2	-4.2	?
CC(=O)Nc1ccc(CN2CCCCCCC2)cc1	-11	3	3	-0.1	-1.7	8.7%
Cc1cc(C)n2nc(SCc3ccc(F)cc3Cl)nc2n1	/	-1	-1	/	-3.2	6.1%
CCOc1ccc(S(=O)(=O)Nc2ccc(C(=O)NCC(C)(C)N3CCOCC3)cc2)cc1	-5	-1	-2	0.4	-4.4	1.0%
CCC(C)(C)NC(=O)C(c1ccccn1)N(C(=O)c1csnn1)c1ccccc1 (configuration not stated)	-10	-6	15	0.2	0.3	1.4%
O=C(NCc1ccc(Cl)cc1)C1CCCN(C(=O)c2cnn(-c3ccc(F)cc3)c2-n2cccc2)C1 (configuration not stated)	41	/	/	-0.3	/	1.7%
COc1ccc(-c2csc3nc(-c4ccccc4OC)oc(=O)c23)cc1	7	-4	1	0.8	-5.6	-3.0%
Cc1nn(-c2ccccc2)c(C)c1C(=O)Nc1ccc(N2CCOCC2)cc1	-4	/	-7	1.5	-4.7	3.2%
Cc1ccccc1-n1ncc2c1CC(C)(C)CC2NC(=O)c1snnc1C (configuration not stated)	23	1	0	0.5	0.9	-0.1%
CCCCN1C(=O)C(CC(=O)NCc2ccco2)CC(C(=O)N(C(C)C)C(C)C)=C1C (configuration not stated)	4	5	5	0.6	-5.0	-0.4%

# (listing goes on)
canonical_smiles	TRPML1 blocker	CtBP-E1A inh	Six1-Eya2 blk	TRPML1 ag	D2 ag	PINK1 expr mod
O=C(CCSc1ccccc1)Nc1ccccc1C(=O)N1CCCC1	-7	-1	14	0.3	-1.5	0.6%
O=C(c1ccc(F)cc1Cl)N(c1ccccn1)C1CCCCC1	-10	0	9	0.2	-6.7	-1.1%
CC1(C)NC(=O)N(CCOCCSc2ccccc2)C1=O	-11	-1	1	0.6	-0.7	?
Cc1ccc(-n2nnnc2C(Cl)c2nnnn2-c2ccc(C)cc2)cc1	-10	/	-2	10	-5.3	10%
Cc1ccc(S(=O)(=O)N(CC(=O)c2ccc(Cl)cc2)C(=O)N2CCN(C)CC2)cc1	7	0	4	0.3	-4.5	-0.9%
CNS(=O)(=O)c1cc(NC(=O)CCNC(=O)c2ccco2)ccc1C	0	4	-7	0.0	-1.6	-1.2%
CCc1nnc(NC(=O)C2CCC(CNc3c(N4CCCCC4)c(=O)c3=O)CC2)s1 (configuration not stated)	/	26	17	/	-1.0	3.7%
Nc1nc(CSc2nc3ccccc3s2)nc(N2CCOCC2)n1	-22	1	-1	1.3	8.5	-1.0%
Cc1cc(C)c2c(NC(=O)c3ccccc3Cl)c(C(=O)NCc3ccc(Cl)cc3)sc2n1	-6	/	/	-0.2	/	5.4%
O=C(c1cccc(F)c1)N1CCN=C1SCc1cccnc1	-20	6	-7	-0.5	-5.0	4.8%
CCc1ccccc1NC(=S)N(Cc1cccnc1)Cc1ccco1	10	9	2	-0.6	-4.8	2.5%
CC(C)(C)n1nnnc1C(c1ccccc1)N1CCN(c2ncc(C(F)(F)F)cc2Cl)CC1 (configuration not stated)	/	-3	-1	57*	/	2.8%

# Assay outcomes: PubChem BioAssay, National Center for Advancing Translational Sciences (NCATS)
